VDR inh: inhibitors of human vitamin D receptor. VDR-SRC2-3 peptide fluorescence polarization, 2 h. P11473. Potency, µM, for inactives: max response, negative = inhibition, most hits filed as inhibitors. 400,000 tested, 0.93% active; active = well fitted inhibition curve with a large enough effect; inconclusive = small, poorly fitted or top-dose-only effect, or another doubt; inactive = no such curve, though single readings can be large or run the other way; also: series mostly up to about 120 µM
Target sequence (P11473 whole entry, looked up): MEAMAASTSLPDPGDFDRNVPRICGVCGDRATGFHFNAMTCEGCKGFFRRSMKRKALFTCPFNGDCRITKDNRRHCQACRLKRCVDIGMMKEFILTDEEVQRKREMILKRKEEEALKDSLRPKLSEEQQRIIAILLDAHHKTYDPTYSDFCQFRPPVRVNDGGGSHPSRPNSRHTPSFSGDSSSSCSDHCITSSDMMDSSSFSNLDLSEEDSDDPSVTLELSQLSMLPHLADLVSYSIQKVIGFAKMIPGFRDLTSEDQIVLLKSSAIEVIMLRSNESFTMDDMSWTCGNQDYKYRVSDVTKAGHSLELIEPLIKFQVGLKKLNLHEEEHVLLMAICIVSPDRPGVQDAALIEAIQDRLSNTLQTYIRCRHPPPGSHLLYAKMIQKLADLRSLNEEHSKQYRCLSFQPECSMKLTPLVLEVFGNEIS
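Inhibition of the VDR/SRC2-3 peptide interaction is quantified by fluorescence polarization. Compounds (23 nl, pintool) incubate with the reagents for 2 hours at ambient room temperature.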
Numbers without * were called inactive; ? = inconclusive; & = joins results of further samples; [ ] = remark or other dose. % is scaled to controls: 0 for no effect and ±100 for the full control effect; potency is read from the fitted curve at half-maximal effect. An excerpt; the hit share may differ from the screen's.

SMILES | VDR inh
Cc1cc(NC(=O)CN2CCc3ccccc3C2)nc2c1c(=O)oc1ccccc12 | -20%
O=C(Cn1cnc([N+](=O)[O-])c1)NCc1ccc(F)cc1 | 20%
S=C(Nc1ccccc1Cl)N(CCN1CCCCC1)Cc1ccco1 | 0%
Cc1cccc(C(C)C)c1NC(=O)c1ccc(COc2ccc3c(C)cc(=O)oc3c2)cc1 | -4%
Cc1nc2[nH]c(=O)[nH]c(=O)c2[nH]1 | 7%
CCOc1ccc(OCC(=O)Nc2ccccc2N2CCCC2)cc1 | 12%
COCCN(CCOC)C(=O)C1CCN(c2ccc(S(=O)(=O)N3CCOCC3)cc2[N+](=O)[O-])CC1 | 3%
N=c1oc2ccc(Br)cc2cc1C(=O)NC1CCCCCC1 | 7%
CCN(CC(=O)NCc1ccco1)S(=O)(=O)c1ccc(F)cc1 | -3%
CCOC(=O)Cn1c(=O)c2c(nc(Br)n2Cc2ccc(Cl)cc2)n(C)c1=O | -3%
CC(C)[C@H](NC(=O)c1cccc(CN(Cc2ccccc2)C(=O)/C=C/c2ccccc2)c1)C(=O)O | 7%
Cc1nn(Cc2ccc(Cl)c(Cl)c2)c(C)c1NC(=O)c1noc2c1CCCCC2 | 7%
O=C(COC(=O)c1ccccc1OCc1ccccc1Cl)NCC1CCCO1 (centres undefined) | 3%
O=C(NCc1ccccc1)C(=O)Nc1nccs1 | -8%
Cc1cccc(Nc2nc(N)nc(CN3CCN(c4ccc(F)cc4)CC3)n2)c1 | 27%
CCOc1ccc(CCNC(=O)COC(=O)CCc2cc(OC)c(OC)c(OC)c2)cc1OCC | -18%
CCN(CC(=O)NCc1cccs1)C(=O)c1cccc(S(=O)(=O)Nc2ccc(OC)cc2)c1 | -8%
O=c1cc(O)nc(SCc2ccccc2)n1-c1ccccc1 | 4%&5%
CC(C)N(CCNS(=O)(=O)c1ccc(Cl)cc1)C(C)C | 20%
COc1ccc(OCCSc2nnc(C)n2-c2ccccc2)cc1 | -1%
COc1ccc(CCNc2nccn(-c3ccc(C)c(C)c3)c2=O)cc1OC | 3%
COc1ccccc1NC(=O)c1ccc2nc(C)sc2c1 | 8%
CSCCC(NC(=O)c1cccc(S(=O)(=O)N2CCOCC2)c1)c1nc2ccccc2[nH]1 (centres undefined) | -27%
CN1CCN(c2ccc(NC(=O)CSc3nnnn3-c3ccccc3Cl)cc2)CC1 | -9%
Clc1cncc(Cl)c1N/N=C/c1ccccc1 | -12%
CCOc1ccc2[nH]cc(C(=O)N3CCN(C4CCCCC4)CC3)c(=O)c2c1 | -20%
CC(C)(C)OC(=O)NCCCCC1=CC2=CC(=O)C(C)(O)C(=O)C2=CO1 (centres undefined) | -13%&-1%
Cc1c(CC(=O)N2CCCCC2)c(=O)oc2cc3occ(C(C)(C)C)c3cc12 | -3%
Cc1ccc(C(=O)NC(=S)Nc2ccc(N3CCOCC3)cc2)cc1C | -21%
O=C(O)CCCNS(=O)(=O)c1ccc2ccccc2c1 | 4%
COc1ccc(C2C=C(c3ccccc3)Nc3nc(NS(=O)(=O)c4ccc(C)cc4)nn32)cc1 (centres undefined) | 6%
Cc1ccc(-c2cc(C(=O)Nc3cnn(C45CC6CC(CC(C6)C4)C5)c3)no2)cc1 | -6%
Cc1cc(C)cc(N2C(=O)CSC2c2cccs2)c1 (centres undefined) | 4%
CC(C)(C)OC(=O)C[C@@H]1C/C=C\C[C@H](CC(=O)N(CCO)Cc2ccccc2)C(=O)NCCOC1=O | 17%
C/C(=N\NC(=O)c1cc(C(C)C)[nH]n1)c1ccncc1 | -5%
CC1(C)NC(=O)N(CC(=O)OCC(=O)Nc2cccc(S(N)(=O)=O)c2)C1=O | 0%
O=C(NCC(=O)N1CCN(C(c2ccccc2)c2ccccc2)CC1)c1ccc(Br)o1 | -11%
COCCN(C(=O)CSc1ncc(C(F)(F)F)cc1Cl)c1c(N)n(Cc2ccccc2)c(=O)[nH]c1=O | -24%
CC1CCCC(C)N1C(=O)c1cc(-c2ccc3c(c2)OCO3)on1 (centres undefined) | 10%
O=C(COc1ccc(C2SCCS2)cc1)NNC(=O)C(Cl)Cl | 2%
CC(=O)Nc1ccc(S(=O)(=O)NCCc2ccc(S(N)(=O)=O)cc2)cc1 | 0%
CC(C)(C)c1cnnn1-c1ccc(C(=O)CCl)cc1 | 79µM*
C/C(=N\NC(=O)CC1(C)OCCO1)c1cccs1 | -1%
CCNC(=O)CSc1nnc(-c2cc(-c3ccc(Cl)cc3)nc3ccccc23)o1 | 4%
CCOc1cc(Cl)c(S(=O)(=O)NCCCN2CCOCC2)cc1Cl | 9%
COc1ccccc1/C=C/C=N/n1c(-c2ccccn2)n[nH]c1=S | 0%
C1CC(CN2CCOCC2)CN(c2nc3nonc3nc2N2CCSCC2)C1 (centres undefined) | -2%
Cc1cc(C)c(NC(=O)COc2nc3ccccc3nc2C)c(C)c1 | -15%
S=c1[nH]nc(Cc2ccccc2)n1-c1ccc(Cl)cc1 | -1%
O=C1/C(=C/c2cccnc2)SC(=S)N1NS(=O)(=O)c1ccccc1 | -20%

Part of the list above in a different format:
VDR inh	structure
-2%	C1CC(CN2CCOCC2)CN(c2nc3nonc3nc2N2CCSCC2)C1 (centres undefined)
-15%	Cc1cc(C)c(NC(=O)COc2nc3ccccc3nc2C)c(C)c1
3%	O=C(COC(=O)c1ccccc1OCc1ccccc1Cl)NCC1CCCO1 (centres undefined)
9%	CCOc1cc(Cl)c(S(=O)(=O)NCCCN2CCOCC2)cc1Cl
-20%	Cc1cc(NC(=O)CN2CCc3ccccc3C2)nc2c1c(=O)oc1ccccc12
-3%	Cc1c(CC(=O)N2CCCCC2)c(=O)oc2cc3occ(C(C)(C)C)c3cc12
-8%	O=C(NCc1ccccc1)C(=O)Nc1nccs1

The list continues.
SMILES | VDR inh
O=C(CN1CCN(S(=O)(=O)c2ccc(Br)s2)CC1)N1CCCCC1 | -3%
Cc1nn2c3c(cnc2c1-c1ccc(Cl)cc1)C(=O)CC(c1ccco1)C3 (centres undefined) | 7%
N#CC1=C(N)Oc2n[nH]c(-c3ccccc3)c2C12C(=O)Nc1ccccc12 (centres undefined) | -7%
Cc1nn(-c2ccccc2)c(Cl)c1/C=N/N1CCN(c2ccccn2)CC1 | 5%
Cc1cc(=O)[nH]c(SCC(=O)NCC2CCCO2)n1 (centres undefined) | -7%
COc1ccccc1-n1cnnc1SCC(=O)Nc1cccnc1Cl | 2%
Cc1cccc(OCC(=O)Nc2nc3c(s2)CC(C(C)(C)C)CC3)c1C (centres undefined) | -3%
CCCCC1=CC2=C(c3ccco3)C(=O)C(C)(OC(=O)c3cccs3)C(=O)C2=CO1 (centres undefined) | -18%
COc1cc(C(=O)NCCC(C)C)c([N+](=O)[O-])cc1OC | -10%
CC(=O)c1ccc(-c2ccc(C3C4C=CCCC4(C)C(=O)N3Cc3ccccc3)c(F)c2)cc1 (centres undefined) | -12%
O=C(CN1C(=O)NC(Cc2ccccc2)C1=O)Nc1ccccc1OC(F)F (centres undefined) | -15%
Cc1cccc(N2CCN(C(=O)C3CCN(c4ncnc5c4nc4n5CCCCC4)CC3)CC2C)c1 (centres undefined) | 13%&12%
Cc1ccc(S(=O)(=O)Cc2ccc(C(=O)N3CCN(c4cc(C)ccc4C)CC3)o2)cc1 | 7%
COc1ccc(OC)c(CCNC(=O)c2cnn(-c3ccccc3)c2-n2cccc2)c1 | 0%
COc1ccc(Cn2cc(C(=O)c3ccc(C)c(C)c3)c(=O)c3ccccc32)cc1 | -12%
O=C(CCC(=O)Nc1ccc(Oc2ccccc2)cc1)NCCO | 14%
CCN1CCN(C(=S)NC(=O)c2cccs2)CC1 | 2%
Cc1cc(C)c(N2C(=O)CCCC2=O)c(Cl)c1 | -8%
Cc1cccc(NC(=O)CSc2nnc(N)s2)c1 | -20%
O=C1CC[C@H](O)CCN1[C@H](CSc1ccccc1)Cc1ccccc1 | 3%
Oc1ccc(/C=N/N2CCOCC2)c(O)c1O | ?
CCOC(=O)C(=NCC1CCCO1)NNc1ccccc1Cl (centres undefined) | -11%
O=C(CSc1nc2ccsc2c(=O)n1CC1CCC(C(=O)O)CC1)NCCc1ccc(Cl)cc1 (centres undefined) | -9%
COc1ccc(-c2c(C)n([O-])c3c([n+]2=O)CCCC3)cc1 | -12%
Cn1cnc([N+](=O)[O-])c1S(=O)(=O)Oc1ccccc1 | 25µM*
N#CCc1nc2c3c4c(sc3ncn2n1)CCCC4 | -10%
O=C(CSc1nc(-c2ccccc2)cc(C(F)(F)F)n1)c1cccc([N+](=O)[O-])c1 | -21%
COc1cc(/C=N\Nc2nc3ccccc3[nH]2)cc(OC)c1OC | -13%
CCOC(=O)C1C2C=CC(CC2)N1c1ccccc1 (centres undefined) | -20%
CCCCCC1(C)NC(=S)N(c2ccccc2)N1 (centres undefined) | ?
Cc1ccc(S(=O)(=O)N2CCCCC2CCNC(=O)C(=O)NCc2cccnc2)cc1 (centres undefined) | -8%
O=C(Nc1nnc(N2CCCCCC2)s1)Nc1cc(F)ccc1F | 4%
Cc1cc(-c2ccccc2)nc2cc(C(=O)NCCCn3ccnc3)nn12 | -1%
CC1(C)CC2CC(C)(CN2Cc2c(O)ccc3ccccc23)C1 (centres undefined) | -11%
CNC(=O)NC(=S)NC(=O)c1ccc(OC)cc1 | 23%
Fc1cccc(CNc2ncnc3cc(Cl)ccc23)c1F | 5%
Cc1nnn(-c2nonc2N)c1C(=O)NNC(=O)c1ccc(Cl)c(Cl)c1 | 12%
CC(C)(C)c1csc(NC2=NS(=O)(=O)c3ccccc32)n1 | -2%
CCN1CCN(CCCNC(=O)C2CCN(c3nnc(-n4c(C)ccc4C)s3)CC2)CC1 | 13%
CC1CCC(NC(=O)CCn2ccc3cc(S(=O)(=O)N4CCCC4)ccc32)CC1 (centres undefined) | -21%
COc1ccc(C(C[N+](=O)[O-])c2c(-c3ccccc3)cc3ccccn23)cc1OC (centres undefined) | -11%
CCOC(=O)C1CCN(c2cc(C)nc3cc(-c4cccc(F)c4)nn23)CC1 | -2%
O=C(CNC(=O)c1cccs1)OCC(=O)c1ccc([N+](=O)[O-])cc1 | 10%
Cc1cc(C)c2c(-n3cccc3)c(C(=O)NNS(=O)(=O)c3ccc(Cl)cc3)sc2n1 | -11%
COc1ccccc1C1C=C(c2ccc(Cl)cc2)Nc2nc(-c3ccc(Cl)cc3)nn21 (centres undefined) | ?
O=C(COC(=O)c1cc(-c2cccs2)nn1-c1ccccc1)Nc1cc([N+](=O)[O-])ccc1Cl | 4%
CC(C)CC1N=C2c3ccccc3N=C(SCC(=O)NCCc3ccc(Cl)cc3)N2C1=O (centres undefined) | 0%
COc1cc2nc(NC(=O)c3ccccc3)[nH]c(=O)c2cc1OC | 1%
Cc1cccc(C(=O)NN(C)c2nc(-c3ccccc3)nnc2C(F)(F)F)c1 | -8%
COc1ccc(CCNC(=O)c2ccc3c(c2)N(Cc2c(F)cccc2Cl)C(=O)CS3)cc1OC | 9%

The results go on.
SMILES | VDR inh
COc1cc(C2C3=C(CC(c4ccco4)CC3=O)Nc3ccccc3N2C(C)=O)cc(OC)c1OC (centres undefined) | -4%
COc1ccc(CCNc2ncnc3c2cnn3-c2cccc(Cl)c2)cc1 | 11%
COc1ccc(NC(=O)CSc2nc3c(c(=O)n(C)c(=O)n3C)n2C)c(OC)c1 | -8%
O=C1[C@@H]2CSCN2C(=O)CN1Cc1ccc(F)cc1 | -1%
Cc1ccc(NC(=O)Cn2cc(C(=O)c3ccco3)c3ccccc32)cc1 | 7%
O=C(NCc1ccc(F)cc1)c1ccc(CS(=O)(=O)c2ccc(Cl)cc2)o1 | -3%
COc1ccc(NC(=O)COC(=O)/C=C/c2ccc(OC)c(S(=O)(=O)N3CCOCC3)c2)cc1 | -14%
Cc1cc2nc(-c3ccc[nH]c3=O)n(Cc3ccccc3F)c2cc1C | -9%
COC(=O)N1C(=O)[C@@](c2ccccc2)(C(C)C)N1C(=O)OC | -26%
Cc1nnsc1C(=O)Nc1ccc(S(=O)(=O)N2CCC(C)CC2)cc1 | 13%
c1ccc(CCCc2nc(-c3ccccn3)no2)cc1 | -4%
CC1CCCN(C(=O)CN(c2ccccc2)S(=O)(=O)c2ccc(F)cc2)C1 (centres undefined) | 31%[activator]
Clc1ccc2c(NCc3ccccn3)ccnc2c1 | 31%[activator]
CCOc1ccc(NC(C(=O)Nc2cccc(C(C)=O)c2)c2ccccc2)cc1 (centres undefined) | 5%
CCCc1cc(=O)oc2cc(C)cc(OCC(=O)NCCCN3CCCC3=O)c12 | 8%
Clc1ccccc1CSc1nnc(C2CCNCC2)o1 | 21%
CCn1nnnc1SCC(=O)Nc1cc(C)on1 | 8%
Cc1cc(C)n(-c2nc3ccccc3c(=O)n2OCc2ccc(Cl)cc2)n1 | -4%
CCn1ncc([C@@H]2C[C@H]3CN(Cc4ccccc4C)C(=O)[C@]34CCCN24)c1C | ?
CCOC(=O)c1[nH]c2ccccc2c1NC(=O)NC1CCCCC1 | -14%
COc1cc(/C=C/C(=O)O)cc(S(=O)(=O)NC2CC2)c1OC | -25%
Nc1c(Cl)cc(C2=NCCn3nc4cc(C(F)(F)F)ccc4c32)cc1Cl | 7%
COc1ccccc1-c1c(C)oc2c(CN3CCOCC3)c(O)ccc2c1=O | 3%
COc1cc(-c2nc3ccc(Cl)cn3c2Nc2ccc3c(c2)OCCO3)ccc1O | -2%
